Screening data (PubChem BioAssay)
UCH37 DUB inh = inhibitors of human UCH37 deubiquitinase, primary screen, biochemical, Ub-AMC cleavage, fluorescence | Ubiquitin carboxyl-terminal hydrolase isozyme L5 (Homo sapiens), Q9Y5K5 | purified proteasome/UCH37 | inhibition, % (test concentration not listed) | 0.33% of 330,000 active;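 active = mean of two replicates above 20%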;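 also: 0% = compound-free wells with enzyme and 100% = wells lacking proteasome; stock transfer was 100 nL into about 20 µL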
Target sequence (Q9Y5K5 whole entry, looked up): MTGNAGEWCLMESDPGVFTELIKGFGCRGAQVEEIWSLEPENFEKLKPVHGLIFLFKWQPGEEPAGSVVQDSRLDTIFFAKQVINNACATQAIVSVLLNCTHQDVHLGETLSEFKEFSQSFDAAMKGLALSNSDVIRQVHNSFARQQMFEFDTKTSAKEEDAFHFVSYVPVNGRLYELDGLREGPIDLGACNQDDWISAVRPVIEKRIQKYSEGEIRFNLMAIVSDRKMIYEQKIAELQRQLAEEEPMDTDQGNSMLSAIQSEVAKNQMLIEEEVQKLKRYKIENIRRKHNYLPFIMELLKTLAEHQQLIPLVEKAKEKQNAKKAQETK
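Material: human UCH37 enzyme supplied as purified proteasome complex / Amount: 0.15 nM proteasome as dispensed / Buffer or medium: pH 7.4 Tris-HCl (50 mM) with ovalbumin, ATP-MgCl2, DTT / Times: preincubation 30 min, reaction 25 min, room temperature / Technique: AMC fluorescence from Ub-AMC cleavage, excitation 355 nm, emission 460 nm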
E coli growth = E. coli growth inhibition, primary screen, OD600; Escherichia coli growth, 23 h; hits give low values; OD600 absorbance (concentration not given with the values); 0.21% of 330,000 active; AID 1053175, 2014;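 active = OD600 absorbance below the run mean of sample wells minus 3.6 SD, in any replicate, cut at about 0.56 in these data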;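 also: stock transfer was 300 nL into about 60 µL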
The depositor's hits bear a star. Not all compounds are listed; count on the stated rates, not on these rows.

SMILES	UCH37 DUB inh	E coli growth
CC1(C)SC(=S)N(N=Cc2ccccc2)C1N(O)C(=O)Nc1ccc([N+](=O)[O-])cc1 (stereo unspecified)	7.6	0.698
COc1cc(C(C)=NNC(=O)CSc2nnc(C)s2)ccc1O	2.8	0.678
Cc1sc(NN=Cc2cccnc2)nc1-c1ccc(Cl)cc1	1.8	0.785
Cc1nc(C)c(C(=O)NN=Cc2cn(C)c3ccccc23)s1	8.9	0.691
COc1ccccc1N(CC(=O)NN=Cc1c(O)ccc2ccccc12)S(C)(=O)=O	0.0	0.668
Cn1c(=O)c2c(nc(NN=C3CCCc4ccccc43)n2Cc2ccc(F)cc2)n(C)c1=O	-16.2	0.669
Cn1c(=S)n(N=Cc2cccs2)c2ccccc21	1.7	0.651
Cc1cc(C(=O)NN=Cc2ccc([N+](=O)[O-])s2)n[nH]1	12.5	0.457*
COc1ccccc1NS(=O)(=O)c1cc([N+](=O)[O-])ccc1NN=Cc1c[nH]c2ccccc12	11.1	0.83
COc1cc(C)c(Cl)cc1S(=O)(=O)NCc1ccncc1	1.9	0.67
COc1cc(C=NNc2cccc(C)c2)ccc1OC(=O)c1cccs1	5.7	0.674
COc1cc(C=NN2CCN(C3c4ccccc4-c4ccccc43)CC2)cc(OC)c1OC	5.2	0.714
N#CC(=C(O)CN1CCOCC1)c1nc2ccccc2s1	11.1	0.699
COc1ccccc1-c1cc(C(=O)NN=Cc2sccc2C)c2ccccc2n1	-4.9	0.779
O=C(Nc1ccccc1)ON=Cc1ccccc1Cl	1.5	0.692
N#CC(=NNc1cccc(F)c1)C(=O)C1CC1	7.3	0.609
CCn1c(C)nc2cc(C(=O)NN=C(C)c3ccc(N4CCOCC4)cc3)ccc21	6.5	0.666
Cc1ccc2oc(N=C(N)NC(=O)C(C)(C)C)nc2c1	-4.3	0.688
CC1=CCCC(C)(C)C1/C=C/C(C)=NNC(=O)c1ccncc1 (stereo unspecified)	5.7	0.702
CC(C)(C)c1nnc(NN=Cc2ccc(Br)cc2)n(N)c1=O	5.6	0.707
COc1cc(C=NO)cc(Br)c1OCc1ccc(Cl)cc1	0.2	0.733
CC(=NO)c1cccc(Br)c1	2.1	0.629
CC(Cn1nnc([N+](=O)[O-])n1)=NNC(=O)c1ccccc1Cl	1.4	0.649
O=C(O)c1ccc(COc2ccc(C=NNC(=O)c3cccs3)cc2)cc1	5.1	0.681
COc1cc(C=NNC(=O)c2cccc(NC(=O)c3ccccc3)c2)ccc1O	0.6	0.642
Cc1nc2ccccc2c(=O)n1N=Cc1ccc(O)cc1O	0.1	0.68
COc1ccccc1N1CCN(N=Cc2ccc(O)cc2O)CC1	5.9	0.706
Cc1cccc(C=NNC(=O)c2ccc(NC(=O)c3cccc(Cl)c3)cc2)n1	-27.3	0.661
O=C(c1ccco1)N1CCN(C(=NS(=O)(=O)c2cccs2)c2ccccc2Cl)CC1	0.0	0.737
S=C(NN=Cc1ccc2ncccc2c1)Nc1cccnc1	3.9	0.693
CCN(CC)c1ccc(C=NN2C(=O)c3ccccc3C2=O)cc1	7.0	0.724
O=C(NN=Cc1cn(-c2ccccc2)nc1-c1ccccc1)c1ccc(Br)o1	-5.3	0.715
COc1ccc(C=NNC(=O)c2ccc(Br)cc2)cc1Cn1cc(Cl)cn1	-7.4	0.697
CC1CCCC(=NNC(=S)Nc2ccccc2)C1 (stereo unspecified)	1.4	0.674
CNC(=S)N=C(Nc1ccccc1)c1ccccc1	1.7	0.7
CC(=NNc1cccc(C(=O)O)c1)c1ccc(Cl)s1	10.6	0.625
COc1cc([N+](=O)[O-])cc(C=NNC(=O)c2ccc(NC(=O)c3ccc(C)cc3)cc2)c1O	4.0	0.556
O=C(C[n+]1ccc(C(=O)NN=Cc2ccc(O)cc2)cc1)c1ccccc1	11.0	0.723
Cc1cccc(C=Nn2c(-c3ccco3)n[nH]c2=S)c1	5.3	0.648
COc1cc(C=Nn2cnnc2)ccc1OS(=O)(=O)c1ccccc1[N+](=O)[O-]	1.0	0.653
Cn1cc(Br)c(C(=O)NN=Cc2cccc(OC3CSC3)c2)n1	0.7	0.67
CCOc1ccccc1C=NNC(=O)CSc1n[nH]c(=O)[nH]c1=O	2.5	0.639
CC(=NNc1ccccn1)c1ccc2c(c1)OCO2	3.7	0.604
COc1ccc([N+](=O)[O-])cc1C=NNC(=O)CNC(=O)c1cccc(F)c1	4.6	0.685
CC(=NNS(C)(=O)=O)c1ccc(C)cc1	1.9	0.714
Cc1cc(C)n2nc(C(=O)NN=Cc3c4ccccc4cc4ccccc34)nc2n1	-19.5	0.738
COC(=O)NN=Cc1ccc(OS(=O)(=O)c2ccc(C)cc2)c(OC)c1	1.5	0.696
CC(Cc1ccccc1)=NNC(=O)CNC(=O)c1ccc(Cl)cc1Cl	4.2	0.702
O=C(NN=Cc1nn(-c2ccccc2)cc1-c1ccccc1)c1ccncc1	-43.3	0.651
Cc1ccc(CN2CCN(N=C/C(Br)=C\c3ccccc3)CC2)cc1	4.7	0.639
Cc1ccc(NC(CSC(N)=O)=NS(=O)(=O)c2ccc(C)cc2)cc1	-0.4	0.729
O=C(CNC(=O)c1cccnc1)NN=Cc1cc(Br)c(O)c(Br)c1	-11.7	0.668
CCOC(=O)C(C#N)=NNc1ccccc1C(=O)O	15.2	0.702
CCC(C)c1ccc(OCCn2cc(C=NNC(=O)CSc3nnc(C)s3)c3ccccc32)cc1 (stereo unspecified)	2.0	0.698
Nc1nnnn1N=Cc1ccccc1OCc1ccc(Cl)cc1	-6.2	0.628
O=C(C=NO)NCCCN1CCOCC1	2.4	0.719
Cc1n[nH]c(=S)n1N=Cc1cccc(OCc2ccccc2)c1	6.4	0.633
COc1ccc(CCC(C)=NNC(N)=O)cc1	4.0	0.677
Cc1ccsc1C=NNC(=O)C1CC(=O)N(c2ccccc2)C1 (stereo unspecified)	5.0	0.678
Cc1nn(-c2ccccc2)c(C)c1-c1cc(C(=O)NN=Cc2ccc(O)cc2)[nH]n1	0.3	0.698

Copied from the listing, 15 compounds:
SMILES	UCH37 DUB inh	E coli growth
Cc1cc(C)n2nc(C(=O)NN=Cc3c4ccccc4cc4ccccc34)nc2n1	-19.5	0.738
COC(=O)NN=Cc1ccc(OS(=O)(=O)c2ccc(C)cc2)c(OC)c1	1.5	0.696
CC(Cc1ccccc1)=NNC(=O)CNC(=O)c1ccc(Cl)cc1Cl	4.2	0.702
O=C(NN=Cc1nn(-c2ccccc2)cc1-c1ccccc1)c1ccncc1	-43.3	0.651
Cc1ccc(CN2CCN(N=C/C(Br)=C\c3ccccc3)CC2)cc1	4.7	0.639
Cc1ccc(NC(CSC(N)=O)=NS(=O)(=O)c2ccc(C)cc2)cc1	-0.4	0.729
O=C(CNC(=O)c1cccnc1)NN=Cc1cc(Br)c(O)c(Br)c1	-11.7	0.668
CCOC(=O)C(C#N)=NNc1ccccc1C(=O)O	15.2	0.702
CCC(C)c1ccc(OCCn2cc(C=NNC(=O)CSc3nnc(C)s3)c3ccccc32)cc1 (stereo unspecified)	2.0	0.698
Nc1nnnn1N=Cc1ccccc1OCc1ccc(Cl)cc1	-6.2	0.628
O=C(C=NO)NCCCN1CCOCC1	2.4	0.719
Cc1n[nH]c(=S)n1N=Cc1cccc(OCc2ccccc2)c1	6.4	0.633
COc1ccc(CCC(C)=NNC(N)=O)cc1	4.0	0.677
Cc1ccsc1C=NNC(=O)C1CC(=O)N(c2ccccc2)C1 (stereo unspecified)	5.0	0.678
Cc1nn(-c2ccccc2)c(C)c1-c1cc(C(=O)NN=Cc2ccc(O)cc2)[nH]n1	0.3	0.698

Continuation.
SMILES	UCH37 DUB inh	E coli growth
CCOc1cccc(-c2c(C(=O)NN=Cc3cccnc3)nnn2-c2nonc2N)c1	3.1	0.641
C#CCOc1c(Br)cc(C=NNC(=O)CN2CCOCC2)cc1OCC	1.3	0.702
Cc1cc(NN=Cc2ccccc2)nc(N)n1	5.9	0.686
O=C(NN=Cc1cccnc1)c1ccccc1OCc1ccc(Cl)cc1	2.9	0.645
Cc1cc(C)nc(NN=Cc2ccccc2OCc2ccccc2)n1	0.2	0.638
COc1cc(C=NNC(=O)c2cccc([N+](=O)[O-])c2)ccc1OCc1ccc(C)cc1	2.5	0.726
COc1ccc2c(Cl)c(C(=O)NN=C3CCCC(=O)C3)sc2c1	7.2	0.71
O=C(CNC(=O)c1cccc(F)c1)NN=C/C=C/c1ccccc1	4.2	0.72
S=c1[nH]nc(C2CCCCC2)n1N=Cc1ccc(Cl)cc1	3.6	0.651
O=C1C2C3C=CC(C4CC34)C2C(=O)N1N=Cc1ccc([N+](=O)[O-])o1 (stereo unspecified)	7.8	0.497*
CC(C)Oc1ccccc1C=NNC(=O)c1ccccc1Cl	3.8	0.658
CN=c1scc(-c2ccccc2Br)n1N=Cc1ccc[nH]1	8.7	0.698
CCC(Cc1ccccc1)=NNC(=O)CNC(=O)c1ccc(Cl)cc1Cl	0.2	0.71
CC(=O)NN=C(C)c1ccc(NC(=O)c2csc(C)c2C)cc1	4.2	0.648
ON=Cc1cccn1-c1ccc(O)cc1	1.0	0.719
C=C(C)CNC(=S)NN=C(C)c1ccc(Cl)s1	0.9	0.672
Cc1ccc(NS(=O)(=O)c2cc([N+](=O)[O-])ccc2NN=Cc2sc(N3CCOCC3)nc2-c2ccccc2)c(C)c1	11.3	0.684
COc1cccc(C=NNC(=O)c2ccc(C)nc2)c1	4.4	0.63
Oc1cccc(C=NN(Cc2ccccc2)c2ccccc2)c1	8.2	0.663
Cc1nc2ccccc2c(=O)n1N=C1C(=O)N(C)c2ccccc21	6.5	0.623
CC(=NOCC(=O)Nn1c(=O)[nH]c2ccccc2c1=O)c1ccccc1	-3.6	0.702
O=C(CN1CCOCC1)NN=Cc1ccc(-c2cccc(Cl)c2Cl)o1	5.0	0.646
CC(CC(=O)NC1CCCCC1)=NNC(=O)COc1ccc(C)cc1Br	-1.2	0.666
CCOC(=O)c1cn(-c2ccc(F)c(F)c2)c2c(F)c(F)c(F)c(F)c2c1=O	3.2	0.654
CCn1c2c(c3cc(Br)ccc31)CCCC2=NO	1.6	0.728
COc1cc([N+](=O)[O-])cc(C=NNC(=O)CSc2nnc(-c3ccccc3)n2C)c1O	13.5	0.661
COc1ccc(S(=O)(=O)NN=C(C)c2cccc(NC(=O)c3ccccc3Cl)c2)cc1	0.7	0.69
CCCCOc1ccc(C=NNC(=O)c2nnn(-c3nonc3N)c2C)cc1	-1.4	0.713
C=C1CC(C(=O)NN=Cc2ccccc2)C1	1.2	0.685
O=C(NN=Cc1ccc(OCC(=O)N2CCCCC2)cc1)c1ccccc1O	5.9	0.69
COc1ccc2nc(C=NNC(=O)[C@H](CCSC)NC(=O)OC(C)(C)C)ccc2c1	-304.0	0.719
COC(=O)c1ccccc1-c1ccc(C=NNc2nc(N3CCCC3)nc(N3CCCC3)n2)o1	-186.3	0.714
CCc1cc(C(=O)NN=Cc2ccc(O)cc2O)c2ccccc2n1	2.5	0.719
CCCCS/C(N)=N/N=Cc1ccccc1O	0.2	0.698
CC(=NNC(=O)c1cccc([N+](=O)[O-])c1)c1cccs1	3.7	0.677
CNC(=S)NN=Cc1cc(C)n(-c2ccc(Cl)c(Cl)c2)c1C	4.1	0.691
CC(C)(C)OC(=O)NN=Cc1ccc([N+](=O)[O-])s1	7.6	0.703
COc1cc(C=NNC(=O)C(=O)NCc2cccnc2)ccc1O	12.8	0.682
O=S(=O)(NN=Cc1ccc2c(c1)OCCO2)c1ccc(Cl)cc1	3.7	0.717
COc1ccc2oc(=NO)c(C(=O)Nc3ccccc3OC)cc2c1	3.7	0.712
CCOC(=O)c1[nH]c(C)c(C(C)=NO)c1C	-0.6	0.694
C=C(C)CNC(=S)NN=Cc1ccc(NC(C)=O)cc1	9.5	0.662
CC1=C(C#N)C(C=NOCc2ccc(Cl)cc2)CC(=O)N1 (stereo unspecified)	-9.9	0.655
COc1ccc(C(=O)NN=C(C)CC(=O)Nc2cccc(C(F)(F)F)c2)cc1	2.2	0.701
CC(=NNC(=O)c1cc(O)ccc1O)c1cccc(NC(=O)c2cccc(Cl)c2)c1	6.1	0.681
COc1ccc(C=NNc2cc(OC)ncn2)cc1	7.7	0.675
O=C(NN=Cc1cccnc1)c1cc(O)c(O)c(O)c1	2.9	0.634
CSc1ccc(C=NNC(=O)COc2ccc(Cl)cc2Br)cc1	6.4	0.679
CC(=NNC(=O)C1CC1)c1cccs1	-1.7	0.702
CC1C(=O)NN=C1C(=O)NN=Cc1cccs1 (stereo unspecified)	9.8	0.723
CC(C)c1ccc(C=NNC(=O)c2nnn(-c3nonc3N)c2CN2CCOCC2)cc1	4.6	0.697
CC(=NN=C(N)SC1CC(=O)N(c2ccc(Br)cc2)C1=O)c1cccs1 (stereo unspecified)	6.5	0.696
CCC(C)NC(=O)c1c(N)n(N=Cc2ccccn2)c2nc3ccccc3nc12 (stereo unspecified)	-29.1	0.731
Cc1cc(C)nc(NN=Cc2ccc3c(c2)OCCO3)n1	6.9	0.681
C/C(C=Nn1c(-c2n[nH]c3c2CCC3)n[nH]c1=S)=C\c1ccco1	11.1	0.679
O=C(NN=Cc1sc(=O)n(Cc2ccc(Br)cc2)c1Cl)c1ccco1	-0.4	0.651
CN1C(=O)CSC1=NNC(=O)COc1cccc2cccnc12	4.2	0.696
O=C(Nc1ccc(F)cc1F)c1cc2ncc(Br)cn2n1	-4.7	0.717
O=[N+]([O-])c1cccc(C=NN=Cc2ccccc2)c1	1.3	0.69
COc1cc(C=NNC(=O)c2c(-c3c(Cl)cccc3Cl)noc2C)ccc1OCC(N)=O	3.6	0.696
CC(=N/N=C1/NC(=O)CS1)c1cccs1	10.4	0.683

Reprinted at random: two entries already listed
SMILES	UCH37 DUB inh	E coli growth
CC(CC(=O)NC1CCCCC1)=NNC(=O)COc1ccc(C)cc1Br	-1.2	0.666
S=c1[nH]nc(C2CCCCC2)n1N=Cc1ccc(Cl)cc1	3.6	0.651
